Screens: PubChem BioAssay, Southern Research Institute
Mtb H37Rv – Mycobacterium tuberculosis H37Rv growth inhibition, cell based, confirmatory dose response (AID 1949) | most inactive calls were filed without a number and no value below 0 was filed | inhibition, % at 10 µg/mL; hits with a dose series show IC50 in µg/mL | hit rate 1.6% among 100,000;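 active = confirmed in a dose series; inconclusive = about 50% or more but not retested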;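 also: bacteria grown 7 days with compound before Alamar blue readout; 0% = untreated bacteria and 100% = reference antibiotic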
Numbers without * were called inactive; i = inactive; u = inconclusive. Not all compounds are listed; count on the stated rates, not on these rows.

SMILES	Mtb H37Rv
CN(C)c1ccc(Nc2nc(-c3ccccn3)cs2)cc1	0.74µg/mL*
COc1ccccc1CCNC(=O)c1cc2c(s1)CCCC2	16%
O=[N+]([O-])c1cccc(NC(=S)Nc2ccccc2F)c1	i
c1coc(CNc2ncnc3c2sc2nc(N4CCOCC4)c4c(c23)CCC4)c1	i
Cc1ccc(Cl)cc1-c1ccc(CO)o1	i
CCN1CCN(C(=O)c2ccc(Br)o2)CC1	3%
O=C(NCCc1c[nH]c2ccccc12)Nc1cccc2ccccc12	1%
CN(c1ccccc1)S(=O)(=O)c1ccc(NC(=S)NC(=O)CCc2ccccc2)cc1	i
CCc1cccc(C)c1NC(=O)c1cccc(F)c1	4%
Cc1nc(NC(=O)c2cc3ccccc3o2)sc1C	18%
COc1cccc(-n2c(-c3ccco3)n[nH]c2=S)c1	8%
C=CCN1C(=O)C(Cc2ccccc2)S/C1=N\N=C/c1ccccc1OC (stereo not given)	i
C=CCc1cc(Cl)ccc1OCCOCCNC(C)(C)C	i
O=C(Nc1ccc(-c2nc3ccccc3[nH]2)cc1)c1ccccc1	2%
Cc1ccc(NC2CC(=O)N(c3ccc(C(=O)O)cc3)C2=O)cc1 (stereo not given)	i
Cc1cc(NC(=O)CCCC(=O)O)ccc1NC(=O)c1cccs1	i
Cc1noc(NS(=O)(=O)c2ccc(NC(=O)c3ccoc3C)cc2)c1C	i
O=C(c1cc2ccccc2oc1=O)N1CCC2(CC1)OCCO2	i
COC(=O)C1=C(C)N=c2s/c(=C3\C(=O)N(C)c4ccccc43)c(=O)n2C1c1cccs1 (stereo not given)	i
CCOC(=O)c1sc(NC(=S)NC(=O)c2ccccc2Cl)c(C(=O)OCC)c1C	3%

The final 2 compounds of the section above lead into the next.
SMILES	Mtb H37Rv
COC(=O)C1=C(C)N=c2s/c(=C3\C(=O)N(C)c4ccccc43)c(=O)n2C1c1cccs1 (stereo not given)	i
CCOC(=O)c1sc(NC(=S)NC(=O)c2ccccc2Cl)c(C(=O)OCC)c1C	3%
O=C1Nc2ccc(F)cc2C1(c1c[nH]c2ccccc12)c1c[nH]c2ccccc12	u
CCOc1cccc(C(=O)Nc2cccc(C(=O)NCC(C)C)c2)c1	1%
CC(=O)N/C(=C\c1cccc([N+](=O)[O-])c1)C(=O)NC(C)C	i
O=C(c1ccc(Cl)s1)N1CCc2ccccc21	i
COc1ccc(NC(=O)C2CCN(S(C)(=O)=O)CC2)cc1OC	i
CSc1ncc(Cl)c(C(=O)N(Cc2cccs2)C2CCS(=O)(=O)C2)n1 (stereo not given)	i
O=C1CCCC2=C1C1(CCCC1)N=C(Nc1nc3ccccc3s1)N2	i
CCn1c(SCC(=O)NC2CCCCC2)nc2ccccc2c1=O	i
Clc1ccc(OCCN2CCNCC2)cc1	i
CCOc1ccccc1OC(=O)c1ccco1	2%
Cc1cc(OCC(=O)O/N=C(\N)c2ccc([N+](=O)[O-])cc2)cc(C)c1Br	1%
COC(=O)c1cc(NS(=O)(=O)c2ccc(F)cc2)ccc1Cl	i
O=C1CCCC2=C1C(c1ccc(F)cc1)c1c([nH]c(=O)[nH]c1=O)N2 (stereo not given)	i
CC(C)c1ccc(NC(=O)C(C(C)C)N2C(=O)c3ccccc3C2=O)cc1 (stereo not given)	i
COC(=O)C1=C(C)NC2=C(C(=O)CC(c3cccs3)C2)C1c1cc(Cl)c(O)c(OC)c1 (stereo not given)	i
COC(=O)C1CCC(C)(C(=O)O)C1(C)C (stereo not given)	i
Cc1c(OCC(N)=O)ccc2c3c(c(=O)oc12)CCCCC3	i
Cc1ccc(NC(=O)/C(=C\c2cccc(Br)c2)NC(=O)c2ccco2)cc1	i
Cc1nc(NC(=O)COc2cccc3ccccc23)sc1C	i
Cc1cccc(CSCCNC(=O)c2ccccc2I)c1	1%

In the list so far, these have two or more sulfur atoms.
SMILES	Mtb H37Rv
CN(c1ccccc1)S(=O)(=O)c1ccc(NC(=S)NC(=O)CCc2ccccc2)cc1	i
COC(=O)C1=C(C)N=c2s/c(=C3\C(=O)N(C)c4ccccc43)c(=O)n2C1c1cccs1 (stereo not given)	i
CCOC(=O)c1sc(NC(=S)NC(=O)c2ccccc2Cl)c(C(=O)OCC)c1C	3%
CSc1ncc(Cl)c(C(=O)N(Cc2cccs2)C2CCS(=O)(=O)C2)n1 (stereo not given)	i

(further entries)
SMILES	Mtb H37Rv
CCOC(=O)c1ccc(NC(=O)CC2C(=O)N(CC)C(=S)N2Cc2cccnc2)cc1 (stereo not given)	5%
Cc1ccc(NCCC(=O)c2ccc([N+](=O)[O-])cc2)cc1C	1.1µg/mL*
Cc1c(O)ccc2c(=O)c(-c3ccccc3Cl)c(C(F)(F)F)oc12	9%
COc1ccc(Br)cc1CNc1ccc(N2CCOCC2)cc1	i
COc1cc(S(=O)(=O)N2CCCCCC2)ccc1Cl	i
CC(=O)C1=C(c2ccccc2)NC(=O)NC1c1ccccc1OCC#N (stereo not given)	i
Cc1cc(C)c(S(=O)(=O)N(CC(=O)N2CCOCC2)C2CCCCC2)c(C)c1	i
COc1cccc(-c2nc(-c3ccc(C)nc3OC)no2)c1	6%
Cc1cccc(C)c1NC(=O)CC(C(=O)O)N(C)C (stereo not given)	0%
Cc1c(Cl)cccc1NS(=O)(=O)c1ccc(NS(=O)(=O)c2ccc(F)cc2)cc1	i
C=CCn1c(SCC(=O)NCc2ccccc2)nnc1C(C)NC(=O)c1ccccc1C (stereo not given)	i
COC(=O)c1c(NC(=O)c2ccncc2)sc(C(=O)Nc2ccccc2)c1C	i
COC(=O)c1cc(C=O)c2sc3ccccc3n12	0%
O=C1CC(Cc2ccccc2)C(=O)N1c1ccc(O)cc1 (stereo not given)	i
FC(F)Oc1ccccc1NC(=S)N1CCN(c2cccc(Cl)c2)CC1	i
O=C(Nc1nnc(SCc2ccccc2)s1)C(c1ccccc1)N1CCOCC1 (stereo not given)	i
COc1ccccc1/C=C/C=C(\C#N)c1nc2ccccc2c(=O)[nH]1	i
CC1CN(C2=NC(=O)/C(=C\c3ccc(O)cc3)S2)CC(C)O1 (stereo not given)	1%
COc1cc(Br)cc2cc(C(=O)N3CCN(c4ccccn4)CC3)c(=O)oc12	i
COc1ccc(CCN2C(=O)C3C4C=CC(C5CC45)C3C2=O)cc1OC (stereo not given)	i

4 structures already listed, ordered by heavy-atom count, highest first.
SMILES	Mtb H37Rv
CCOC(=O)c1ccc(NC(=O)CC2C(=O)N(CC)C(=S)N2Cc2cccnc2)cc1 (stereo not given)	5%
Cc1c(Cl)cccc1NS(=O)(=O)c1ccc(NS(=O)(=O)c2ccc(F)cc2)cc1	i
Cc1cc(C)c(S(=O)(=O)N(CC(=O)N2CCOCC2)C2CCCCC2)c(C)c1	i
O=C1CC(Cc2ccccc2)C(=O)N1c1ccc(O)cc1 (stereo not given)	i

(more compounds)
SMILES	Mtb H37Rv
O=C(NC(=S)Nc1ccc(NC(=O)c2ccco2)c(Cl)c1)c1ccc(Br)cc1	0%
CCC(C)NC(=O)COc1ccc(Br)c(C)c1 (stereo not given)	3%
Fc1ccc(Cn2ccc(NC(=S)NCCc3ccccc3)n2)cc1	i
O=C(OCc1ccc(S(=O)(=O)Cc2ccccc2)cc1)c1ccccc1C(=O)c1ccccc1	6%
NS(=O)(=O)c1ccc(NC(=S)NC2CCCC2)cc1	i
N/C(Cc1ccc(Cl)c(Cl)c1)=N\OC(=O)c1cccc(Br)c1	32%
CC(NC(=O)c1ccccc1F)C1CCCO1 (stereo not given)	i
CCn1c(SCC(=O)Nc2ccc(C(=O)O)cc2)nnc1-c1ccc(Cl)cc1	i
CC(CNCC1CCCO1)COc1ccccc1F (stereo not given)	i
CN1CCc2c(sc3[nH]c(=O)c4c(=S)nc(-c5ccco5)[nH]c4c23)C1	i
O=C1c2ccccc2C(O)(Cc2ccccc2)N1Cc1ccccc1 (stereo not given)	i
COc1ccc(NC(=S)N2CCN(C3CCCCC3)CC2)cc1	i
O=C(c1ccc(F)cc1)N1CCN(c2ccnc3cc(Cl)ccc23)CC1	i
COC(=O)c1ccc(NC(=O)CSc2nnc(-c3ccc(NC(C)=O)cc3)n2C)cc1	i
O=C1C2C3c4ccccc4C(c4ccccc43)C2C(=O)N1c1ccc(Br)cc1 (stereo not given)	i
CCCCc1ccc2nc3sc(C(=O)OCC)cc3cc2c1	i
O=S(=O)(c1ccc(Cl)cc1)N1CCN(c2nnc(-c3ccccc3)c3ccccc23)CC1	i
COc1cccc(C(=O)Oc2ccc3c(C)cc(=O)oc3c2C(C)=O)c1	5%
CCN(CC)c1ccc(NC(=O)COc2ccc(Cl)cc2Cl)c(C)c1	i
CCc1ccc(NC(=O)c2ccc(N(C)S(=O)(=O)c3ccccc3)cc2)cc1	i
Cc1cc(C(F)(F)F)nn1CC(=O)N1CCCCC1	i
CCCC(=O)N1CCN(c2ccc(NC(=O)c3sc4ccccc4c3Cl)cc2Cl)CC1	i
O=C(NCc1ccc(F)cc1)c1cc(Br)ccc1Cl	i
Cc1ccc(NC(=O)c2cc3nc(C)cc(C)n3n2)cc1	i
NS(=O)(=O)c1ccc(Cc2ccc([N+](=O)[O-])cc2)cc1	3%
O=C(COc1ccccc1Cl)Nc1cccc(-c2nc3ccccc3[nH]2)c1	2%
Fc1cccc(NC(=S)Nc2ccc(Cl)cc2)c1	20%
COc1cc(OC)c(C2Nc3cc(C)c(C)cc3NC3=C2C(=O)CC(C)(C)C3)cc1OC (stereo not given)	1%
O=C(c1ccccc1O)N1N=C(c2ccc(Br)cc2)CC1(O)C(F)(F)F (stereo not given)	1%
CCOc1ccc(N(CC(=O)N2CCC(C(N)=O)CC2)S(=O)(=O)c2ccccc2)cc1	i
COc1ccc(NC(=O)C2=C(C)NC(=S)NC2c2cccc(F)c2)c(OC)c1 (stereo not given)	i
COc1ccc(-c2csc3ncnc(N4CCN(c5ccccc5)CC4)c23)cc1	0%
O=C(Cc1ccccc1)Nc1nnc(CSc2ccccc2)s1	i
C=CCOc1ccc(C(=O)N2CCN(C(=O)OCC)CC2)cc1	4%
CC(C)CC(=O)NC(=S)Nc1ccccc1N1CCN(C(=O)c2ccc(Cl)cc2)CC1	i
Cc1c(C)[n+](=O)c2cc(N3CCN(C)CC3)c(Cl)cc2n1[O-]	2%
CCOc1ccc(S(=O)(=O)Nc2c(C)cc(C)cc2C)cc1	3%
COc1cc(NC(=S)NC(=O)c2cccc3ccccc23)ccc1NC(=O)c1ccccc1Cl	i
CN(C)c1cccc(C(=O)NNC(=S)Nc2ccccc2C(F)(F)F)c1	i
O=C(Nc1nnc(SCC(=O)N2CCOCC2)s1)c1ccc(Cl)cc1Cl	0%
COc1ccc(OC)c(NC(=S)Nc2ccc(S(=O)(=O)N3CCCCCC3)cc2)c1	i
CCC(=O)Nc1nnc(Cc2ccccc2C)s1	i
Cc1ccc(OC(C)C(=O)Nc2ccc(S(N)(=O)=O)cc2)cc1C (stereo not given)	i
N#Cc1ccc(C(=O)Nc2ccc(N3CCCCC3)cc2)c(F)c1	1%
O=S(=O)(c1ccccc1)N1CCN(c2ncnc3sc4c(c23)CCCC4)CC1	i
CCc1nc2sc(C#N)c(N)c2cc1C	i
O=C(CSc1ncccn1)N1c2ccccc2Sc2ccccc21	i
O=C(Nc1scc(-c2ccccc2)c1C(=O)O)c1ccccc1I	i
Cc1cc(C)cc(NC(=O)CCN2CCN(CCO)CC2)c1	i
CC(O)c1nc2ccccc2n1Cc1ccccc1F (stereo not given)	0%
COC(=O)Cc1c(C)c2ccc(OCc3ccccc3OC)cc2oc1=O	i
CCn1cc(C(=O)O)c(=O)c2cc(F)c(N3CCN(C(=O)Nc4ccccc4)CC3)cc21	i
Cc1ccc(NS(=O)(=O)c2ccc(NC(=O)CCc3ccccc3)cc2)cc1C	i
Cc1cccc(C)c1N1CCN(C(=O)c2cc3ccccc3oc2=O)CC1	1%
O=C(Nc1ccc2c(c1)OCO2)c1ccc(Cl)s1	11%
CC(C)OC(=O)c1cn(CCC#N)nc1-c1ccc2c(c1)OCCO2	19%
CCCCc1ccc(NS(=O)(=O)c2ccc(Cl)c(C(=O)O)c2)cc1	i
COc1ccc(OC)c(NS(=O)(=O)c2ccc(NS(=O)(=O)c3ccc(NC(C)=O)cc3)cc2)c1	0%
Cc1cccc(C(=O)Nc2ccc([N+](=O)[O-])c(NC(=O)c3cccc(C)c3)c2)c1	i
COc1cc(OC)c(OC)cc1/C=C/c1ccc2cccc(OC)c2n1	38%

In another format: four of the compounds above.
O=C(Nc1scc(-c2ccccc2)c1C(=O)O)c1ccccc1I
  Mtb H37Rv: i
Cc1cc(C)cc(NC(=O)CCN2CCN(CCO)CC2)c1
  Mtb H37Rv: i
CC(O)c1nc2ccccc2n1Cc1ccccc1F (stereo not given)
  Mtb H37Rv: 0%
COC(=O)Cc1c(C)c2ccc(OCc3ccccc3OC)cc2oc1=O
  Mtb H37Rv: i

Continued.
SMILES	Mtb H37Rv
COc1ccc(-c2cc(C(=O)Nc3c(F)c(F)c(F)c(F)c3F)c3ccccc3n2)cc1OC	i
O=C(Nc1ccon1)c1ccccc1F	i
O=C(CSc1nc(-c2ccccc2)c2cc(Cl)ccc2n1)N1N=CCC1c1ccccc1 (stereo not given)	4%
Cc1ccc(C(C)C)c(OCc2ccc(C(=O)Nc3ccc(S(N)(=O)=O)cc3C)o2)c1	40%
COc1ccc(-n2c(SCC(=O)N3C(C)CCCC3C)nnc2-c2ccccc2)cc1 (stereo not given)	2%
CC(C)Cc1ccc(S(=O)(=O)N2CCN(c3ccc([N+](=O)[O-])cc3)CC2)cc1	3%
CC1=C(C(=O)N2CCOCC2)C(c2ccc(Cl)cc2)NC(=O)N1 (stereo not given)	i
COc1ccc(NC(=O)COc2cc(C)ccc2C(C)C)c(OC)c1	i
Cc1ccc(NC(=O)CSc2nnc(-c3ccncc3)n2C)c(Br)c1	i
CC(C)(C)c1ccc(CSc2nc3c(c(=O)[nH]2)CCC3)cc1	i
Cc1[nH]c(=S)[nH]c(=O)c1Cc1ccc(C(=O)O)o1	4%
